# LANA-H2B inh: blocks KSHV LANA binding to histone H2A/H2B; 320,000 compounds, 0.6% hits; Q9QR71; cell-free LANA-H2A/H2B peptide, fluorescence polarization; AID 2629; inhibition, % (test concentration not listed); in the data active = inhibition mostly above about 10%, no sharp cut-off; inactive = mostly below about 6.7%;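 also: stock transfer was 7.5 nL into about 10 µL; 0% = median of vehicle wells and 100% = median of positive control wells; one replicate is shown; the record names a cut of 25% in any replicate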
# Target sequence (Q9QR71 whole entry, looked up): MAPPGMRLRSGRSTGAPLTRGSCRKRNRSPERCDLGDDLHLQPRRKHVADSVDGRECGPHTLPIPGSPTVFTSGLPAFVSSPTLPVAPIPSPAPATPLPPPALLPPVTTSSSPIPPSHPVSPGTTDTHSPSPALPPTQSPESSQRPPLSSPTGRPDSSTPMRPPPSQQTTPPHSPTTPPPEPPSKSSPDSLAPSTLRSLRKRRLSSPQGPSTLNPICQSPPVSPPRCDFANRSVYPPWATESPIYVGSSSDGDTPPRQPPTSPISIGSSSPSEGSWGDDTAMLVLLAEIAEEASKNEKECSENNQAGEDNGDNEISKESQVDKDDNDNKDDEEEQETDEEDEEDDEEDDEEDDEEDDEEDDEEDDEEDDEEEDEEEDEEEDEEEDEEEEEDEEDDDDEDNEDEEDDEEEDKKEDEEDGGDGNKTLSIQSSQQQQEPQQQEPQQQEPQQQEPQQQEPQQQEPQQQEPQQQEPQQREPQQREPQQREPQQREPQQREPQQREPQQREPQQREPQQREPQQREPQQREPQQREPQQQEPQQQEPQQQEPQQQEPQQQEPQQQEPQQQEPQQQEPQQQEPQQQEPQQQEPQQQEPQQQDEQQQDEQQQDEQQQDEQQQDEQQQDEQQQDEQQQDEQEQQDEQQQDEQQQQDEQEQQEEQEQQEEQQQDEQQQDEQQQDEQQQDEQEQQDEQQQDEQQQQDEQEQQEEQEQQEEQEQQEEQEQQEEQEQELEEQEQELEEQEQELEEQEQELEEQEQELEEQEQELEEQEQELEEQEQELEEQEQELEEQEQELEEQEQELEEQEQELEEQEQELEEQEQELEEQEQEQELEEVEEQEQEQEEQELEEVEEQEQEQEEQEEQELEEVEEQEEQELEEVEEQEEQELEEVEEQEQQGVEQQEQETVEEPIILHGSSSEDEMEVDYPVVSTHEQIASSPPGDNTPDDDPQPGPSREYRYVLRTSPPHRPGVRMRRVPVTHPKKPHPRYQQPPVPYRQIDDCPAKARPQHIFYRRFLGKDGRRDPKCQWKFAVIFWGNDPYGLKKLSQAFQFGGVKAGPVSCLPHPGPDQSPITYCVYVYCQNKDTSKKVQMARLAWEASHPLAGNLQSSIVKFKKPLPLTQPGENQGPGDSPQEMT
# B2AR ag: human beta-2 adrenergic receptor agonism by FAP; response, % (concentration not given with the values); AID 504454; Am2.2-beta2AR cells, FAP receptor internalization, flow cytometry; reference of the scale not given here; 340,000 compounds, 0.43% hits;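 active = response above a set limit, near 3 SD of response in nonfluorescent compounds, cut at about 42% in these data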;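 also: stock transfer was 100 nL into about 11 µL; a reference agonist was the positive control; negative values mostly stem from fluorescent compounds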
# A1 inh: inhibitors of the anti-apoptotic protein A1, read as caspase activation. AID 2462. 330,000 compounds, 0.066% hits. caspase activation, % (test concentration not listed). MEF A1-2A-BIM cells, Caspase-Glo 3/7 luminescence, 3 h; percent of clofoctol response, vehicle zero;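 active = over half of replicate activation scores above 10%, or exactly half above 10 with the replicate mean above 10; inconclusive = replicate mean below 10 yet half the replicates above 10; inactive = over half of replicates below 10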;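 also: wells of about 30 µL received 50 nL stock; many hits fall short of the cut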
# E coli growth: E. coli growth inhibition. Escherichia coli growth, OD600, 23 h; hits give low values. OD600 absorbance (test concentration not listed). 330,000 compounds, 0.21% hits;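 active = OD600 absorbance below the run mean of sample wells minus 3.6 SD, in any replicate, cut at about 0.56 in these data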;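 also: stock transfer was 300 nL into about 60 µL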
# Vif TR-FRET: inhibitors of Vif binding to APOBEC3G peptide, primary screen, biochemical, TR-FRET, GST-Vif 1-94, biotin-A3G peptide, dose response retest (AID 1117319); TR-FRET GST-Vif / biotin-A3G peptide binding; higher % means a stronger effect; test concentration not given here; strong numbers were not always called active; inhibition, %, or IC50 in µM where a hit was titrated; 260,000 compounds, 0.57% hits;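 active = above the screen mean plus three standard deviations and confirmed in dose response; inconclusive = results disagree or hit not tested in dose response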;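 also: Vif residues 1-94 fused to GST binding biotinylated APOBEC3G peptide 110-148; 0% = full assay without inhibitor and 100% = GST in place of GST-Vif; retest series ran down from 100 µM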
# UCH37 inh: inhibitors of human deubiquitinating enzyme UCH37; purified proteasome/UCH37, Ub-AMC cleavage fluorescence; inhibition, % (test concentration not listed); 330,000 compounds, 0.33% hits;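 active = mean of two replicates above 20%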;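 also: 0% = compound-free wells with enzyme and 100% = wells lacking proteasome; stock transfer was 100 nL into about 20 µL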
#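 Schedule: 30 min plus 25 min, room temperature / Material: human UCH37 within purified proteasomes / Technique: AMC fluorescence intensity at 355/460 nm / Buffer or medium: pH 7.4 Tris-HCl (50 mM) with ovalbumin, ATP-MgCl2, DTT / Controls: wells without proteasome as full block, compound-free enzyme plus substrate as uninhibited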
# HNF4A DNA FP: change in binding of human HNF4 alpha to DNA | P41235 | activity change, % at 10 µM | AID 1224865 | 360,000 compounds, 0.3% hits | HNF4a-FITC DNA binding, fluorescence polarization, 1 h; in the data active = activity change above about 30%, passing the limit was not always enough;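 also: controls were the assay level and a saturating level of protein; the project sought stronger binding though the title names inhibitors; some compounds called inactive have numbers as strong as hits; positive values seem to mean higher polarization but the record does not say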
# Active calls of the source: *; ? = inconclusive; / = no result given. This is a random part of the collection. About 2.1% of those tested had a hit in this group.
SMILES,LANA-H2B inh,B2AR ag,A1 inh,E coli growth,Vif TR-FRET,UCH37 inh,HNF4A DNA FP
O=[N+]([O-])c1ccccc1S(=O)(=O)Nc1ccc(S(=O)(=O)N2CCOCC2)cc1,3.9,3,-0.1,0.61,-1%,-0.3,-0.4
CCOC(=O)C1C2C=CC3(CN(c4cccc(Cl)c4)C(=O)C13)O2 (stereo not drawn),-1.9,14,0.0,0.74,5%,4.6,-1.8
COc1cccc(/C=C2\Oc3ccc(O)cc3C2=O)c1O,-4.7,13,-11,0.7,0%,0.0,8.5
CCN(C(=O)CN1C(=O)NC2(CCCc3ccccc32)C1=O)c1ccc(F)cc1 (stereo not drawn),5.8,1,0.4,0.7,-16%,2.7,0.4
N#Cc1ccsc1NC(=O)CN1C(=O)NC2(CCCC2)C1=O,5.4,-4,0.7,/,/,/,-13
CC(=O)c1cc(C#N)c(SCc2ccccc2)nc1C,-2.2,-4,-0.2,0.69,7%,2.1,0.1
CCS(=O)(=O)N1CCN(c2ccc([N+](=O)[O-])c(N3CCOCC3)c2)CC1,0.8,3,0.8,0.68,0%,12,0.5
COc1ccc(NC(=O)N[C@@H](CCSC)C(=O)O)cc1Cl,2.1,-12,0.2,/,5%,-1.3,2.0
CCOC(=O)c1c(NC(=O)COc2ncnc3ccccc23)sc(C)c1CC,-5.4,-12,0.4,/,?,2.0,3.9
Cc1ccc(C(=O)O/N=C(\N)c2cccc([N+](=O)[O-])c2)cc1,-2.5,1,-1.7,/,19%,/,-0.5
CCc1cccc(C)c1NC(=O)CCN1C(=O)NC(C)(C)C1=O,0.7,-2,-0.2,0.69,-16%,0.7,4.4
COc1ccc(OC)c(/C=N/NC(=O)CSc2cc(C)nc3c(OC)cccc23)c1,-0.5,3,-0.3,/,8%,/,4.2
COc1ccc(C2CC(C(F)(F)F)n3nc(C(=O)O)cc3N2)cc1OC (stereo not drawn),4.4,10,0.2,0.68,7%,4.1,0.9
O=C(Nc1ccc(N2CCOCC2)cc1Cl)C1CCN(C(=O)OCc2ccccc2)CC1,-1.9,9,-0.3,0.66,-8%,4.1,-5.6
Cc1ccc(CNc2ccc3c(c2)OCO3)cc1,-0.7,-478,0.1,0.72,12%,-3.6,-60
Cc1nc2cccc(C)n2c(=O)c1Cl,0.7,2,-0.2,0.69,-3%,5.5,0.8
CN(CC(=O)Nc1ccccc1Cl)C(=O)COC(=O)CN1C(=O)NC2(CCCC2)C1=O,3.3,-1,-0.6,0.7,/,6.7,3.7
O=C(Nc1nccs1)c1ccc2c(c1)C(=O)N(Cc1cccnc1)C2=O,0.3,-4,0.1,0.7,/,1.4,2.2
CCCc1cc(=O)n2[nH]c(NCc3ccc(OC)cc3)nc2n1,0.0,4,-0.7,0.69,-4%,0.5,3.0
Cc1ccc(C2CC(=O)Nc3cc4c(cc32)OCCO4)s1 (stereo not drawn),0.6,1,-0.1,0.7,-6%,-4.2,-0.2
Cn1nccc1/C=C(/C#N)S(=O)(=O)c1ccccc1,12,-10,-0.6,0.66,2%,1.4,0.1
Cc1cc(N)ccc1-n1c(C)ccc1C,0.0,2,/,0.65,16%,3.0,0.9
O=C(NCC(=O)N(c1cccnc1)C(C(=O)NC1CCCC1)c1ccccc1)c1ccco1 (stereo not drawn),0.1,-2,-0.6,0.67,-16%,1.6,-4.6
CC(OC(=O)C1CC1)C(=O)Nc1cc(Cl)cc(Cl)c1 (stereo not drawn),1.3,4,1.0,0.67,3%,-1.2,1.1
CCOC(=O)CC1(C)NC(C(=O)O)C(C)(C)S1 (stereo not drawn),/,0,/,/,-6%,/,2.6
Cn1c(O)c(N=NC(=S)Nc2ccccc2F)c2cc(S(=O)(=O)N3CCOCC3)ccc21,/,10,/,0.72,0%,7.7,-1.8
O=C1NCC(=O)N2CCC[C@@H]12,-9.7,4,0.3,0.74,/,1.2,-3.5
N#Cc1ccc(C23CC4(C2)[C@H](CN(CC2CCCCC2)[C@@H]4c2ccccc2)C3c2ccccc2)cc1 (stereo partly drawn),-7.4,2,0.0,/,/,3.7,5.0
COc1ccccc1CNS(=O)(=O)c1ccc(S(=O)(=O)NC2CC2)cc1,3.4,-2,-0.4,0.65,/,-1.7,4.2
COc1ccc(/C=C/C(O)=C(\C#N)c2nnc(N3CCOCC3)n2-c2ccccc2)cc1OC,3.4,2,-1.2,0.43*,/,-4.7,-5.3
COc1ccc(CCNC(=O)C2c3ccccc3C(=O)N2CCC(C)C)cc1OC (stereo not drawn),-1.9,17,-0.4,0.65,4%,6.8,2.6
Cc1cccc(N(Cc2ccccc2)C(=O)CSC(C)C(=O)Nc2cc(C)on2)c1 (stereo not drawn),-2.4,-7,-1.0,0.73,1%,4.1,-1.1
COc1ccc(C)cc1NC(=O)CC(O)(C(F)(F)F)C(F)(F)F,1.9,12,1.2,0.66,1%,1.2,1.6
Cc1ccc(OCCCCc2c(C)n[nH]c2C)cc1,-0.1,14,-0.2,0.63,/,2.0,-0.4
O=C(NCc1ccccn1)c1ccc(Cl)s1,-6.8,-7,0.2,0.67,-6%,2.0,0.1
CN(C)CCCn1c(SCC(=O)N2c3ccccc3Sc3ccccc32)nc2ccccc2c1=O,0.9,49*,0.6,0.67,6%,9.1,1.6
O=C(Cn1cc(COc2cc(F)cc(F)c2)nn1)c1ccc(O)cc1,/,-6,/,/,0%,/,2.3
Oc1ccc2ccc(Cl)cc2c1,/,15,/,/,4%,/,-3.1
CCOC(=O)CSc1nc2c(sc(=S)n2-c2ccccc2)c(=O)n1-c1ccc(OC)cc1OC,5.1,23,0.0,0.65,-3%,6.9,2.0
CC(=O)OCC1OC(n2c3c(cc(C#N)c2=S)CCCC3)C(OC(C)=O)C(OC(C)=O)C1OC(C)=O (stereo not drawn),/,-18,/,/,-26%,/,3.1

# Arranged by molar mass (rising): three of the compounds above
SMILES,LANA-H2B inh,B2AR ag,A1 inh,E coli growth,Vif TR-FRET,UCH37 inh,HNF4A DNA FP
Cc1cccc(N(Cc2ccccc2)C(=O)CSC(C)C(=O)Nc2cc(C)on2)c1 (stereo not drawn),-2.4,-7,-1.0,0.73,1%,4.1,-1.1
CN(C)CCCn1c(SCC(=O)N2c3ccccc3Sc3ccccc32)nc2ccccc2c1=O,0.9,49*,0.6,0.67,6%,9.1,1.6
CCOC(=O)CSc1nc2c(sc(=S)n2-c2ccccc2)c(=O)n1-c1ccc(OC)cc1OC,5.1,23,0.0,0.65,-3%,6.9,2.0

# New compounds follow:
SMILES,LANA-H2B inh,B2AR ag,A1 inh,E coli growth,Vif TR-FRET,UCH37 inh,HNF4A DNA FP
CSCCC1NC(=O)N(CC(=O)N2CCc3ccccc3C2)C1=O (stereo not drawn),-2.5,-3,-1.7,0.69,-2%,-1.4,2.7
O=C(NCCSCc1c(F)cccc1Cl)c1ccco1,-1.7,-4,1.0,0.76,-7%,-0.5,-0.2
CN(C)c1ccc(C(=O)OCC(=O)Nc2ccc(N3CCOCC3)cc2)cc1,2.8,-5,-0.2,0.65,/,0.7,4.6
COc1cccc(/C=N/NC(=O)c2ccc(OCc3cccc(Br)c3)cc2)c1,-3.3,5,1.6,/,4%,/,2.0
CCOC(=O)[C@@H]1[C@H]2COc3ccccc3[C@H]2N2C(=O)N(c3ccccc3)C(=O)[C@]12C,-0.3,-2,0.4,/,/,4.4,3.3
Nc1cc(=O)[nH]c(=O)n1-c1cccc(F)c1,4.8,1,0.5,0.71,14%,0.6,0.6
Cc1nc(N2CCN(c3ccccn3)CC2)c2c(C)c(C(=O)Nc3c(C)cc(Br)cc3C)sc2n1,0.2,8,0.6,0.74,/,-10,-3.0
NC(=O)/C=C\C(=O)Nc1cccc(C(F)(F)F)c1,-1.5,5,0.6,0.61,17%,2.5,-0.5
Cc1oc2cc3oc(=O)c(CCC(=O)NC4CC4)c(C)c3cc2c1C,0.6,1,-0.3,0.74,/,-22,0.1
CC(=O)C1=C(O)C(=O)N(c2cccc(C(=O)O)c2)C1c1ccccc1F (stereo not drawn),/,-5,/,0.66,/,1.2,3.1
CCCCCn1c(CN2CC(C)OC(C)C2)nc2c1c(=O)n(C)c(=O)n2C (stereo not drawn),3.3,-4,-0.2,0.76,/,0.8,0.8
S=C(Nc1ccccc1)NC1CCN(Cc2ccccc2)CC1,-4.4,-13,-0.3,0.66,/,2.8,-0.3
CC(C1=C(CCN(C)C)Cc2ccccc21)c1ccccn1 (stereo not drawn),/,2,/,/,-2%,/,0.0
Cn1cc(CN2CCCC(C(=O)c3cccs3)C2)c(-c2cccc(Cl)c2)n1 (stereo not drawn),-2.6,-7,-0.3,0.69,/,-0.9,0.2
COc1ccc(-n2ncc(Cl)c(Cl)c2=O)cc1,/,/,/,0.71,-2%,3.6,2.0
COc1ccccc1N(C)S(=O)(=O)c1ccc(C(=O)NC2=NCCS2)cc1,-6.7,15,0.0,0.73,8%,5.5,1.6
Cc1sc2nc(CSCC(=O)N(C)CC(=O)Nc3ccc(F)cc3)[nH]c(=O)c2c1C,-1.5,16,-0.4,0.67,3%,1.0,11
CCN1C/C(=C/c2cccc([N+](=O)[O-])c2)C(=O)/C(=C/c2cccc([N+](=O)[O-])c2)C1,3.4,87*,2.9,0.66,25%,2.2,-2.8
O=C(CNS(=O)(=O)c1ccc2ccccc2c1)Nc1ccc(F)c(F)c1F,3.0,12,-1.5,0.67,71%,0.8,0.4
CCOC(=O)NC1(C(F)(F)F)N=C(c2ccccc2)NC1=O (stereo not drawn),14*,-5,-0.5,0.77,-3%,0.3,-1.4
CCN1CCN(c2ccccc2NC(=O)c2ccc(-n3cccn3)cc2)CC1,-6.8,2,-0.5,0.69,/,1.7,3.9
COCCCNC(=O)CCSc1ccc(C)cc1,0.0,0,-0.9,0.7,-7%,2.8,-3.5
Cc1ccc(C)c(NC(=O)COC(=O)c2c(C)nn(-c3ccccc3)c2C)c1,-7.4,-7,-4.8,0.68,/,0.2,-2.4
CN(C)c1ccc(NC(=S)NC(=O)/C=C/c2ccc(Cl)cc2)cc1,2.4,2,-0.8,0.77,24%,6.9,1.0
CC(=O)c1cccc(Nc2nc(-c3cccnc3)cs2)c1,-1.5,14,-0.8,0.67,-1%,1.3,-4.1
Cc1sc2ccccc2[n+]1CCC(C)S(=O)(=O)[O-] (stereo not drawn),1.0,-2,0.0,0.69,26%,1.5,-1.0
COc1ccc(OC)c2sc(N3CCCCC3)nc12,5.2,0,0.6,0.73,-1%,1.3,0.1
CCC(C)N(C(=O)COc1ccc(Cl)c2cccnc12)C1CCS(=O)(=O)C1 (stereo not drawn),1.5,8,0.1,/,/,/,-4.0
CC1CC(C)CN(C(=O)CCC(=O)Nc2nnc(C(C)C)s2)C1 (stereo not drawn),-2.5,4,-1.3,0.6,3%,1.5,3.9
O=C(NC(=S)NC1CCCCC1)c1ccc(Cl)cc1,7.1,-12,0.8,0.63,/,3.1,1.3
O=C(c1cnsn1)N1CCC(CO)(Cc2ccc(Cl)cc2)CC1,3.9,3,-0.6,0.64,-12%,4.2,-2.5
Cc1cccc(OCC(=O)N/N=C/c2cn[nH]c2-c2ccc(Cl)c(Cl)c2)c1,-2.6,-4,-1.6,/,-3%,/,-2.5
CCOC(=O)c1cc(NC(=O)Nc2ccccn2)c(C)nc1C,1.7,-1,-2.1,0.69,-6%,4.4,1.6
NC(=O)Cc1ccc(C(=O)c2ccccc2)s1,-4.5,-5,-0.1,0.73,3%,-0.3,0.2
CCn1c2ccccc2c2cc(NC(=O)COc3ccc(OC)cc3)ccc21,2.4,15,0.6,0.75,-16%,-2.1,-1.9
CCOC(=O)Cn1cc(-c2ccccc2)nn1,-2.1,-4,0.4,0.68,1%,2.3,0.6
O=C(N/N=C/C=C/c1ccco1)c1ccncc1,-0.4,1,0.7,/,2.4µM*,/,5.2

# Screening data: PubChem BioAssay, several laboratories
